# HIV TAR-Tat = TAR RNA-Tat peptide displacers, HIV-1, primary screen, biochemical, FRET, FAM/TAMRA-labeled Tat; 0.6% of 100,000 active; z-score (concentration not given with the values); HIV-1 TAR RNA, Tat peptide displacement FRET; stronger effect = higher value;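 also: score is relative to mean and SD of negative controls; some compounds called inactive have numbers as strong as hits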
# CDC25B-CDK2 inh = primary biochemical HTRF screen for blockers of M-phase inducer phosphatase 2 binding to CDK2/cyclin A. z-score (concentration not given with the values). P30305+P24941. HTRF CDC25B-CDK2/CyclinA binding, anti-His/anti-Flag; stronger effect = higher value. 0.72% of 94,000 active. AID 1259370, 2018;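 also: score is relative to mean and SD of negative controls; strong numbers were not always called active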
# Active calls of the source: *; . = no result given; & = joins results of further samples.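 The calls were made as follows: active = z-score from 3 up in half or more of its runs; inactive = the rest.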
No.	smiles	CDC25B-CDK2 inh	HIV TAR-Tat
1	O=C(Cn1c(=O)n(CC2CCCO2)c(=O)c2ccccc21)N1CCN(c2ccccc2)CC1 (stereo not drawn)	-0.37	.
2	C=CC(C)c1c(CCC)nc(-c2ccccn2)[nH]c1=O (stereo not drawn)	-1.61	.
3	CC1CC(N(CCC#N)S(=O)(=O)c2ccc(Br)cc2)CC(C)(C)C1 (stereo not drawn)	-0.25	.
4	S=C1SCN(Cc2ccccn2)CN1Cc1ccco1	-3.27	.
5	O=C(c1ccc(Cl)cc1)N1CCN(Cc2cc(=O)n3ccccc3n2)CC1	.	-0.48
6	O=C(CC1(O)C(=O)Nc2ccc(Br)cc21)c1cccs1 (stereo not drawn)	-0.26	-0.17
7	S=c1nc2ccccc2c2nc(Cc3ccccc3)[nH]n12	-0.92	.
8	Cc1cccc(C)c1Nc1c(-c2ccccn2)nc2sccn12	-1.02	-0.66
9	O=C(Cn1c2ccccc2n2nc(-c3ccco3)nc12)c1ccc(Br)cc1	0.14	0.19
10	Cc1ccc(-c2ccc(=O)n(C(C)C(=O)N3CCc4ccccc43)n2)cc1C (stereo not drawn)	-0.15	-1.72
11	CCOC(=O)c1noc(Oc2ccc(Cl)cc2Cl)n1	-1.78	.
12	CCCCc1nn2c(=O)cc(CSCC(=O)Nc3ccc(F)cc3)nc2s1	.	0.43
13	Cc1[nH]nc(-n2cnnc2)c1NS(=O)(=O)c1ccccc1	-0.45	-1.27
14	COCCNC(=O)Cn1c(-n2nc(C)cc2C)nc2c(c1=O)CCCC2	.	2.15
15	O=C(Nc1ccccc1Cl)N1CCN2CCCCC2C1 (stereo not drawn)	.	-0.12
16	CCCNC(=O)Cn1cc2c(n1)CCC(C)C2 (stereo not drawn)	-2.83	.
17	O=C(CC1(O)C(=O)Nc2ccccc21)c1ccccc1Cl (stereo not drawn)	.	1.45
18	CCC1Cn2cc(C(=O)N3CCN(CC)CC3)c(=O)c3c(C)ccc(c32)O1 (stereo not drawn)	.	0.35
19	CCCCn1c(C)cc(=S)cc1C	-0.06	1.55
20	Fc1ccccc1N1CCN(Cc2nnc(-c3ccc4c(c3)OCO4)o2)CC1	-1.81	1.79
21	S=C(NCCCN1CCOCC1)N/N=C/c1ccc(Cl)cc1	-1.14	.
22	C=CCn1c(C(C)Oc2cccc(C)c2)nc2ccccc21 (stereo not drawn)	2.53	0.63
23	CCc1ccc(-c2cc(C)no2)cc1S(=O)(=O)N1CCC(C)CC1	.	0.6
24	Cc1ccc(-c2nnc3n(CC(C)C)c(=O)c4ccccc4n23)s1	-0.91	0.1
25	C=CCN1C(=O)C2(/C(=C(/O)c3ccc(C)cc3)C(=O)C(=O)N2CCCOC)c2ccccc21 (stereo not drawn)	-1.01	0.8
26	CCNc1cc(C)nc(N2CCN(C(=O)Nc3ccc(Cl)cc3)CC2)n1	.	-3.16
27	Cn1c(=O)c2c(nc(CN3CCN(c4ccc(F)cc4)CC3)n2CC(=O)C(C)(C)C)n(C)c1=O	-1.66	-0.18
28	CCOC(=O)N1CCC(NC(=O)c2cc3ccc4cccnc4c3[nH]2)CC1	.	0.2
29	COC(=O)c1cc2c(cc1NC(=O)c1cnn(-c3ccccc3)c1-n1cccc1)OCO2	-1.13	1.92
30	CC(C)c1ccc(C2NC(=S)NC3=C2C(=O)CCC3)cc1 (stereo not drawn)	-0.54	.
31	Cc1cc(S(=O)(=O)Nc2cccc(-c3ccc(N4CCOCC4)nn3)c2)c(C)cc1Cl	.	0.23
32	CSc1nc(-c2ccc(C)cc2)c(C#N)c(N2CCN(C)CC2)n1	-1.26	-0.68
33	CS(=O)(=O)N1CCCC1c1cccs1 (stereo not drawn)	-2.2	-1.62
34	COCCc1nn2c(=O)cc(COC(=O)c3ccco3)nc2s1	.	1.04
35	COc1cc(C2Oc3ccccc3C3CC(c4ccccc4)=NN32)ccc1OC(C)=O (stereo not drawn)	-3.4	1.99
36	O=S1(=O)N=C(Nc2cccc(F)c2)c2ccccc21	-0.45	0.46
37	CCCCCC(=O)Nc1nc2nc(C)c(C)c(=O)n2[nH]1	-1.41	0.89
38	CN(C)S(=O)(=O)NCc1ccc2c(c1)OCO2	-1.97	0.38
39	CCNc1nc(Nc2cccc(Cl)c2)c2cnn(C)c2n1	.	1.28
40	O=C(Nc1cc(C(F)(F)F)ccc1N1CCCC1)Nc1cccc2ccccc12	-0.1	.
41	CC(C)CN(CC(C)C)CP(=S)(CN(CC(C)C)CC(C)C)CN(CC(C)C)CC(C)C	-0.49	.
42	NC(=O)C1CCN(C(=O)CSc2nc3ccccc3o2)CC1	-1.67	.
43	COC(=O)C1(S(=O)(=O)c2ccc(C)cc2)CCOCC1	-2.08	.
44	CC1(C)Cc2nc3sc4c(=O)n(Cc5ccc(F)cc5)cnc4c3cc2CO1	.	0.74
45	O=C(NCCCN1CCC(N2CCCCC2)CC1)C1CCN(c2nc3ccccc3[nH]2)CC1	-1.11	1.26
46	Cc1ccc(C)c(S(=O)(=O)NCCc2csc3nc(-c4cccs4)nn23)c1	.	0.53
47	Cn1c(=O)c2c(SCC(=O)NCC3CCCO3)nc(C3CCCC3)nc2n(C)c1=O (stereo not drawn)	.	0.11
48	O=C(c1ccc([N+](=O)[O-])cc1[N+](=O)[O-])N1CCN(C/C=C/c2ccccc2)CC1	-2.49	.
49	Fc1ccc(-c2nc(=S)c3c([nH]2)Oc2ccccc2C3)cc1	-1.9	-2.34
50	O=C(CCCn1c(=O)c2cccn2c2cccnc21)N1CCN(C2CCCCC2)CC1	.	0.93
51	COc1ccc(/C=C/c2nc(C#N)c(N3CCN(C)CC3)o2)cc1OC	-1.57	0
52	CCCN1CCN(c2ncc3c(n2)CCN(Cc2ccccn2)C3)CC1	.	-0.47
53	CCn1c(C(O)c2ccc(OCc3ccccc3)c(OC)c2)nc2ccccc21 (stereo not drawn)	-1.54	1.76
54	CCCC(CCC)C(=O)O	0.37	0.89&2.2
55	CC1=C(c2ccc(C(C)C)cc2)S(=O)(=O)N=C1Nc1ccc(Br)cn1	-1.14	-0.11
56	Cc1ccccc1-c1nc2ccc(Cl)cc2c(=O)o1	-2.06	1.87
57	NC(=S)SC(CC(=O)c1ccccc1)c1ccsc1 (stereo not drawn)	-1.42	.
58	COc1ccc(N2CCCS2(=O)=O)cc1NS(=O)(=O)c1ccc(C)s1	.	0.11
59	S=C(NCc1ccco1)Nc1cccnc1	1.33	.
60	O=C(Cn1cnc(S(=O)(=O)N2CCc3ccccc32)c1)Nc1ccc2c(c1)OCO2	.	-0.98

# Further results
No.	smiles	CDC25B-CDK2 inh	HIV TAR-Tat
61	Cc1cc(-c2ccc(C)c(S(=O)(=O)N3CCC(C)CC3)c2)on1	.	0.06
62	CC1=C(C(=O)OCCOc2ccccc2)C(c2ccc(C)cc2)C2=C(CC(C)(C)CC2=O)N1 (stereo not drawn)	-1.72	0.9
63	O=C(c1ccco1)N1CCN(C(=O)c2c3c(nc4ccccc24)C(=O)N(C2CCCCC2)C3)CC1	.	1.44
64	COc1cc(C2C(C(=O)OC3CCCCC3)=C(C)NC3=C2C(=O)CCC3)ccc1O (stereo not drawn)	-0.17	-0.03
65	CSc1nc2ccccc2n1CCOc1ccc(C)cc1	-0.8	.
66	COc1ccc(-c2cc(C(=O)Nc3nnc(SC)s3)nn2C2CCS(=O)(=O)C2)cc1 (stereo not drawn)	-1.41	2.03
67	COc1nc2ccccc2n1C	-1.21	.
68	COC(=O)C1=C(C)NC(C)=C(C(=O)OC2CCCN(Cc3ccccc3)C2)C1c1cccc([N+](=O)[O-])c1 (stereo not drawn)	-0.26	.
69	Cc1ccc(S(=O)(=O)Nc2cc(Cl)c3oc(=O)sc3c2)c(C)c1	-1.83	-0.85
70	COc1cccc(N2CCN(c3nnc(-n4nc(C)cc4C)c4ccccc34)CC2)c1	.	1.72
71	CCCC1CNc2cc(Cl)ccc2O1 (stereo not drawn)	-3.02	1.17
72	CCC(=O)N1c2ccc(S(=O)(=O)CCC(=O)NC3CCCCCC3)cc2CC1C (stereo not drawn)	-1.59	.
73	COc1ccccc1N1C(=O)c2ccc3c(=O)n4c5ccc(C)cc5nc4c4ccc(c2c34)C1=O	-3.63	.
74	CCc1ccc(S(=O)(=O)Nc2cc3c4c(oc3c3ccccc23)CCCC4=O)cc1	18*	.
75	Cn1cccc1Cc1nnc(SCC(=O)Nc2ccc3c(c2)OCCO3)n1-c1ccc(F)cc1	0.3	1.02
76	O=C(Nc1cccc(F)c1)c1nc2ccccc2nc1Cl	-2.77	-1.35
77	O=C(NC1CCCCC1)C1CCN(c2nc3cccnc3s2)CC1	.	1.83
78	COC(=O)/C=C1/NCC(OC(=O)c2ccc(C(C)(C)C)cc2)CNC1=O (stereo not drawn)	-1.38	.
79	Cc1csc2nc(-c3ccc(NS(=O)(=O)c4cc(F)ccc4F)cc3)cn12	.	-1.66
80	O=c1c2c3c(sc2nc2n1CCCCC2)CCCCC3	-0.46	.
81	CCOc1cc2c(cc1OCC)C(C1CCCCC1)NCC2 (stereo not drawn)	-1.57	.
82	CC1CC(C)CN(c2cc(NCCN(C)CCO)c3c4c(onc24)-c2ccccc2C3=O)C1 (stereo not drawn)	-0.68	-3.19
83	CC1=NN(C(=O)c2ccc(Br)cc2)C(O)(C(F)(F)F)C1 (stereo not drawn)	-2.5	.
84	CC12CCC(C(=O)O)(OC1=O)C2(C)C (stereo not drawn)	1.46	1.12
85	O=C(C1=C(O)C(=O)N(CCCN2CCOCC2)C1c1cccnc1)c1cccs1 (stereo not drawn)	-1.03	1.16
86	Cc1c2cnn(-c3ccccc3)c(=O)c2c(C)n1C(C)C(=O)NC1CC1 (stereo not drawn)	-2.13	3.02
87	Cc1nc(-c2cccs2)sc1C(=O)NN	-1.33	.
88	O=C(OCc1cc(=O)n2nc(C3CC3)sc2n1)c1ccccc1Cl	.	-0.44
89	CC(C)CCNC(=O)C1(C)Cn2nc(C(=O)NCCN(C)C)cc2C(=O)N1C (stereo not drawn)	.	-0.63
90	Cc1ccc(-c2n[nH]c(=O)c3c2CCCC3)cc1S(=O)(=O)Nc1ccc(Br)cc1	1.13	0

# In the list so far, these contain a thiophene ring, fused or not:
No.	smiles	CDC25B-CDK2 inh	HIV TAR-Tat
6	O=C(CC1(O)C(=O)Nc2ccc(Br)cc21)c1cccs1 (stereo not drawn)	-0.26	-0.17
24	Cc1ccc(-c2nnc3n(CC(C)C)c(=O)c4ccccc4n23)s1	-0.91	0.1
33	CS(=O)(=O)N1CCCC1c1cccs1 (stereo not drawn)	-2.2	-1.62
44	CC1(C)Cc2nc3sc4c(=O)n(Cc5ccc(F)cc5)cnc4c3cc2CO1	.	0.74
46	Cc1ccc(C)c(S(=O)(=O)NCCc2csc3nc(-c4cccs4)nn23)c1	.	0.53
57	NC(=S)SC(CC(=O)c1ccccc1)c1ccsc1 (stereo not drawn)	-1.42	.
58	COc1ccc(N2CCCS2(=O)=O)cc1NS(=O)(=O)c1ccc(C)s1	.	0.11
80	O=c1c2c3c(sc2nc2n1CCCCC2)CCCCC3	-0.46	.
85	O=C(C1=C(O)C(=O)N(CCCN2CCOCC2)C1c1cccnc1)c1cccs1 (stereo not drawn)	-1.03	1.16
87	Cc1nc(-c2cccs2)sc1C(=O)NN	-1.33	.

# Additional records follow.
No.	smiles	CDC25B-CDK2 inh	HIV TAR-Tat
91	CCc1nn(CC(=O)NCCC(C)C)c(=O)c2cc3ccccc3n12	2.66	1.32
92	CCN(Cc1ccccc1)S(=O)(=O)c1cc(N2C(=O)CCS2(=O)=O)ccc1C	-1.82	0.83
93	CC1CCN(S(=O)(=O)c2ccc3c(c2)CC(C)N3C(=O)C2CC2)CC1 (stereo not drawn)	.	-1.52
94	O=C1c2[nH]nc(-c3ccccc3O)c2C(c2ccccc2F)N1Cc1ccncc1 (stereo not drawn)	-1.74	0.61
95	CN1C(=O)Cc2cc(S(=O)(=O)CCC(=O)Nc3ccc4c(c3)OCCO4)ccc21	.	-0.01
96	CCc1ccc2occ(CC(=O)Nc3nnc(C)s3)c2c1	-3.7	2.84
97	CC(C)(C)C1CCc2c(sc(NC(=O)CCC(=O)O)c2C(N)=O)C1 (stereo not drawn)	-0.89	.
98	O=C(O)CCCCCN1C(=O)c2cccc3cccc(c23)C1=O	-1.46	2.97
99	COc1ccc(-c2c3c([nH]c(=S)c2C#N)CCCCC3)cc1	0.34	-0.1
100	Cc1cccc(-c2noc(COc3ccccc3)n2)c1	-0.73	.
101	Cc1nc(S(=O)(=O)N2CCN(c3ccc(Cl)cc3)CC2)cn1C	.	-0.31
102	O=C1CN(Cc2c(F)cccc2Cl)S(=O)(=O)c2ccccc2N1Cc1cccc(F)c1	.	0.31
103	Cc1nn(-c2nc3ccccc3n2C)c2c1C(c1ccc(C(=O)O)cc1)CC(=O)N2 (stereo not drawn)	.	1.43
104	CCOc1ccc(-n2nnc(-c3nc(-c4ccc(C)cc4)no3)c2N)cc1	.	-0.14
105	CN(C)CCCN(C(=O)c1cccc(Br)c1)c1nc2c(F)cccc2s1	.	0.5
106	CN1C(=O)c2cc(C(=O)NC3CC3)nn2CC1(C)C(=O)NC1CCCC1 (stereo not drawn)	.	-0.99
107	C=CCOc1ccc2c(=O)c(Oc3cccc(C)c3)coc2c1	0.9	2.09
108	CC1=C(C(=O)Nc2ccc(Br)c(C)c2)C2(CCCCC2)OC1=O	-2.21	-1.41
109	Cc1ccccc1-c1nnc2[nH]c(=O)n(C)c(=O)c2n1	-2.07	1.92
110	CCCN(CCC#N)C(=S)Nc1ccc(C)c(C)c1	-1	.
111	Cc1cc(-c2ccc(C(C)C)c(S(=O)(=O)NC(C)Cc3ccco3)c2)on1 (stereo not drawn)	.	0.98
112	Nc1c(-c2ccncc2)[nH]c2ccc(Cl)cc12	.	0.68

# Not a hit list; about 0.89% have a hit in one of these screens.
